# PINK1 expr mod = A Quantitative High throughput Screen to Identify Chemical Modulators of PINK1 Expression | PINK1 immunofluorescence, high-content cytometry, 24 h | Potency, µM (highest dose often 76.6 µM), for inactives: at the top dose activation (PINK1 increase), usual class: activators | 410,000 compounds, 0.2% hits; active = well fitted activation curve with a large enough effect; inconclusive = small, poorly fitted or top-dose-only effect; inactive = flat fitted curve, though single readings scatter; cell line not stated here;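 further: potency means the concentration at half of the fitted maximal effect; % of control where 0% means no effect; nearly all actives have a fitted effect of over 65% in size; a mitochondrial uncoupler was the plate control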
#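 Stable cell line treated 24 h with compounds at 5 concentrations (CCCP controls), then fixed and immunostained for PINK1 plus nuclear and cell stains; PINK1 immunofluorescence quantified by laser-scanning microplate cytometry.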
# D2 ag = Beta-Arrestin HTS for Positive Allosteric Modulators of the Human D2 Dopamine Receptor: Agonists | DiscoveRx PathHunter D2 beta-arrestin, luminescence, 90 min; 100% = 57 uM dopamine signal | activation, % (no concentration beside the values) | 360,000 compounds, 0.084% hits; in the data active = activation above about 40%; inconclusive = about 15% to 40%; inactive = below about 15%; further: compound concentration not given in the record; the text of the record calls up to 30% inactive
# Target sequence (P14416 whole entry, looked up): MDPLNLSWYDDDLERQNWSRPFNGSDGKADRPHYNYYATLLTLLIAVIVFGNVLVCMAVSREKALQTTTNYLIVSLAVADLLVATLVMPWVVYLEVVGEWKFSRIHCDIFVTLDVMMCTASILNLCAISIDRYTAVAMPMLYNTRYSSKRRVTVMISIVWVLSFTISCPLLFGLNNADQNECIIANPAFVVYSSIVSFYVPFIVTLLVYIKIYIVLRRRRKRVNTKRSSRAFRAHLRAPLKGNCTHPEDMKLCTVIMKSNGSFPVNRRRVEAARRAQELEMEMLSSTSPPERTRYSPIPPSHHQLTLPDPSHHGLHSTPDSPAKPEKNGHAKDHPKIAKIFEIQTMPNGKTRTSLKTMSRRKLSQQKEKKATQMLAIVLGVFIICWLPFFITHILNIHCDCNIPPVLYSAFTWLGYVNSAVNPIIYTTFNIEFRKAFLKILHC
#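 Agonist mode: compounds alone added to overnight-plated D2 PathHunter cells for 90 min at 37 C, with 57 uM final dopamine (EC100) defining full response. Beta-arrestin recruitment detected by chemiluminescent reagent, read after 1 h at ambient temperature.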
# TRPML1 agonist = qHTS for Agonists of the Human Mucolipin Transient Receptor Potential 1 (TRPML1) | Mucolipin-1 (Homo sapiens), Q9GZU1 | TRPML1-expressing cells, Ca2+ dye fluorescence, FDSS; host cell line not named in the record; reference of the full effect not given here | activation, % (concentration not given with the values) | 410,000 compounds, 0.12% hits; in the data active = activation above about 50%; inconclusive = about 30% to 50%; inactive = below about 30%; further: 0% is about no effect; the text of the record puts the active cut at 80%
# Target sequence (Q9GZU1 whole entry, looked up): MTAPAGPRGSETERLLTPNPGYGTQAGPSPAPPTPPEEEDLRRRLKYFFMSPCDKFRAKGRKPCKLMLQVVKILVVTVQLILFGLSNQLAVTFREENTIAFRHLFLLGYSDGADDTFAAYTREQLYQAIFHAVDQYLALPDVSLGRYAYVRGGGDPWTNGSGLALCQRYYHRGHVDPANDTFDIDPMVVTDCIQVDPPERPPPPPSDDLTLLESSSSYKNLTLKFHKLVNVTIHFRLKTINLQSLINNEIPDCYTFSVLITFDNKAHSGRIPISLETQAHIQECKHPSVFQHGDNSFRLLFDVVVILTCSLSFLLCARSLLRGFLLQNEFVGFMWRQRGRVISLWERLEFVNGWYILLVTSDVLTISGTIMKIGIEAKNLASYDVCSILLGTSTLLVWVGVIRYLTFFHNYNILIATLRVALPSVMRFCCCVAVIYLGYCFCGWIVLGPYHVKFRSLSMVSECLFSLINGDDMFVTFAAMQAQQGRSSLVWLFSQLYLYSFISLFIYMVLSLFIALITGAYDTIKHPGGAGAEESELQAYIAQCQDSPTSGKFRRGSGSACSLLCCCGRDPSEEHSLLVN
#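 Kinetic FDSS Ca2+ read in Tet-induced TRPML1-DL cells (ABD Ca8 dye plus quencher, 45-90 min RT loading): baseline, then compound, then 110 s agonist window; EC80 agonist 54-4 at 4uM final added afterwards for a 110 s antagonist window.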
# Six1-Eya2 blk = qHTS Assay for Inhibitors of the Six1/Eya2 Interaction; Homeobox protein SIX1 (Homo sapiens) + Protein phosphatase EYA2 (Homo sapiens), …; AlphaScreen GST-Six1/His-Eya2 binding, biochemical; active compounds read low; control for the full effect not named in the record; activity change, % (no concentration beside the values); 360,000 compounds, 0.56% hits; AID 651725, 2012; in the data active = activity change below about -65%; inconclusive = about -30% to -65%; inactive = above about -30%; further: on the % scale 0 is the no-effect control and ±100 the full control effect
#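 AlphaScreen with GST-Six1 and His-Eya2 (5X mix: 250 nM and 500 nM), glutathione donor and nickel acceptor beads; buffer 50 mM Tris pH 8.0, 300 mM NaCl, 1 mM TCEP; 1 h at 37 C in the dark.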
# D2 PAM = Beta-Arrestin HTS for Positive Allosteric Modulators of the Human D2 Dopamine Receptor: Potentiators; D(2) dopamine receptor (Homo sapiens), P14416; DiscoveRx D2 beta-arrestin cells, luminescence, 90 min; 100% = 57 uM dopamine signal; potentiation, % (no concentration beside the values); 360,000 compounds, 0.23% hits; AID 624464, 2012; active = potentiation of 50% or more; inconclusive = 30% to 50%; inactive = 30% or less;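 further: compound concentration not given in the record; tested on top of an EC20 dose of dopamine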
#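 PathHunter beta-arrestin assay in DiscoveRx D2 cells. Compounds were added with an EC20 of dopamine (50 nM final) for 90 min at 37 deg C. Luminescence was read 1 h after detection reagent, with 57 uM dopamine as the EC100 control.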
# CtBP-E1A blk = qHTS Assay for Inhibitors of the CtBP/E1A Interaction | AID 651724, 2012 | 340,000 compounds, 0.49% hits | CtBP / adenovirus E1A interaction (AlphaScreen) | AlphaScreen GST-E1A/His-CtBP binding, 1536-well; active compounds read low; control for the full effect not named in the record | activity change, % (concentration not given with the values); in the data active means activity change below about -65%; inconclusive means about -30% to -65%; inactive means above about -30%; further: on the % scale 0 is the no-effect control and ±100 the full control effect
#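 Protein mix (5X: 125 nM each GST-E1A, His-CtBP) was incubated with pinned compound 2 h at 37 deg C in dark, in 50 mM Tris pH 8.0 buffer with 300 mM NaCl. Glutathione donor and nickel acceptor beads followed; AlphaScreen signal read after 1 h.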
# * hit, by the source's call; ? = inconclusive; nt = no result given; [ ] = another dose, or the depositor's remark.
SMILES,PINK1 expr mod,D2 ag,TRPML1 agonist,Six1-Eya2 blk,D2 PAM,CtBP-E1A blk
Cc1noc(C)c1COc1ccccc1C(=O)NCCOc1ccccc1,2.1%,-4.7,0.7,-2,-6,14
COc1ccc(-c2coc3c(C(=O)NCC(C)C)cccc23)c(C)c1,-1.4%,?,0.5,1,-1,9
Cc1cc(C)c(C(=O)NCC(=O)c2ccccc2)c(C)c1,0.8%,1.3,0.0,17,-4,4
COc1ccc(-c2oc3ccc(-c4ccc5c(c4)OCO5)cc3c2-c2ccc(OC)nc2)cc1,1.3%,-0.5,-0.4,2,1,nt
COCCn1nnnc1C(c1ccc(OC)c(OC)c1)N1CCc2ccccc21 (configuration not stated),?,0.8,0.4,-7,-1,-7
CCOC(=O)/C=C/C(=O)N1CCc2ccccc21,-0.5%,-1.9,-0.3,-12,-6,?
O=C(NCCCn1ccnc1)C(=O)NCC1OCCN1S(=O)(=O)c1ccc(Cl)cc1 (configuration not stated),0.1%,-1.3,-0.8,?,0,?
COc1cc(Nc2nnc(C)s2)c(Cl)cc1Cl,1.3%,-2.3,-0.4,-2,-44,-6
O=S(=O)(c1ccc(Br)cc1)N1CCC2(CC1)OCCO2,-1.6%,-1.8,-0.1,2,-2,-2
CN(C)c1ccc(S(=O)(=O)NCC(=O)NCCOc2ccccc2F)cc1[N+](=O)[O-],3.4%,-2.9,-0.1,0,0,-2
CN(C)CCNc1oc(-c2ccccc2Cl)nc1S(=O)(=O)c1ccccc1,-0.4%,-3.5,0.0,-10,-4,-10
COc1ccc2[nH]c(=O)c(CN(C(=O)c3ccccn3)c3ccccc3)cc2c1,4.8%,-2.5,-0.2,8,-4,-4
COc1ccc(OC2C(=O)N(Cc3ccc(F)cc3)C2c2cc(OC)c(OC)c(OC)c2)cc1 (configuration not stated),2.6%,-2.5,0.8,-1,-4,17
COC(=O)c1ccc(NC(=O)CCN2C(=O)C3C4CCC(C4)C3C2=O)cc1 (configuration not stated),-0.3%,-1.6,1.3,1,12,7
COc1cccc(CC2(CO)CCCN(Cc3ccccc3Cl)C2)c1 (configuration not stated),6.6%,-2.4,-0.3,1,0,5
O=C(O)CCC(=O)N1CCc2cc(S(=O)(=O)N3CCC(Cc4ccccc4)CC3)ccc21,-0.9%,-4.2,-0.1,-5,-4,6
Cc1cc(C(=O)COC(=O)CNC(=O)c2ccc(Cl)c(Cl)c2)c(C)n1Cc1ccco1,1.6%,-2.0,3.6,-4,-6,-8
COc1ccc(C)cc1NC(=O)CCS(=O)(=O)c1ccc2c(c1)oc(=O)n2C,2.0%,7.5,0.0,7,-19,12
CCCCOC(=O)CCCN1C(=O)/C(=C2\SC(=S)N(CCCC(=O)OCCCC)C2=O)SC1=S,-0.2%,2.6,0.9,6,8,nt
CCOC(=O)CSc1nnc(CNC(=O)c2cc(OC)c(OC)c(OC)c2)n1C,0.8%,-1.0,-0.3,-3,-14,-12
Cc1ccsc1/C=N\NC(=O)c1cc(C(C)(C)C)[nH]n1,0.0%,-2.9,-0.9,2,-42,5
CCOC(=O)N1CCN(C(c2cccc(OC)c2)c2sc3nc(C)nn3c2O)CC1 (configuration not stated),-1.4%,-2.8,1.3,0,-3,6
CCOc1ccc(OCCC(=O)NNC(=O)c2nn(C)c(=O)c3ccccc23)cc1,-1.0%,-1.7,0.0,-1,4,4
Cc1ccc(NC(=O)CSc2nc(CSc3ccc(C)cc3)cc(=O)[nH]2)cc1,0.9%,8.0,2.4,17,-6,30
O=C(CCNC(=O)c1ccc([N+](=O)[O-])cc1)Nc1cc(Cl)ccc1N1CCOCC1,-2.5%,1.4,0.1,0,2,-1
Cc1cccc(C)c1NC(=S)N(CCCN1CCN(C)CC1)Cc1cccs1,1.1%,0.4,0.2,8,4,7
OCc1nc2ccccc2n1CCCc1ccccc1,1.1%,-2.5,-0.5,-2,0,4
Cc1ccsc1/C=C/c1ccc2cccc(O)c2n1,7.4%[38.3 µM],-7.7,0.1,9,-16,12
CCOc1ccc(-n2c(SCc3ccc([N+](=O)[O-])cc3)nnc2-c2ccc(OC)cc2)cc1,1.2%,-3.5,0.5,-21,-9,-6
CCOc1ccc(-c2nnc(NC(=O)C3CCCC3)o2)cc1,0.3%,-1.9,-0.1,-25,-4,-22
CC(=O)/C(=N\Nc1ccccc1)Sc1nnc(-c2ccccc2)n1-c1ccccc1,6.4%,-3.3,0.6,-1,-13,-3
Oc1ccc2ccccc2c1CNc1ccc(Br)cn1,12%,-0.3,1.5,0,-1,8
O=C1CN(C(=O)c2cc3ccccc3oc2=O)C(c2ccccc2)c2cc(F)ccc2N1 (configuration not stated),1.7%,1.0,-0.4,-5,-1,-6
CC1CCN(C(=O)CSCC(=O)Nc2nc(-c3cccs3)cs2)CC1,2.8%,2.2,0.5,-8,-4,2
C=CCN1C(=O)c2ccccc2Sc2ccc(C(=O)N3CCN(C)CC3)cc21,2.5%,4.6,-1.3,0,-11,13
CCn1c(=O)cc(OCC(=O)Nc2cc(C)ccn2)c2ccccc21,11%[38.3 µM],0.8,0.4,-9,-7,-16
CCOc1ccccc1CNCc1ccc(C(=O)O)cc1,-2.8%,4.7,0.5,6,-1,7
Nc1nc(Sc2ccc(C(F)(F)F)cn2)n[nH]1,0.5%,6.5,0.0,-2,-6,-23
COc1ccc(CN(CCC(c2ccc(F)cc2)C2CCOC(C)(C)C2)C(=O)c2ccco2)cc1 (configuration not stated),-1.9%,?,3.4,-8,17,-5
COc1nc(OC)nc(Oc2ccc(Cl)cc2[N+](=O)[O-])n1,1.1%,2.5,0.2,-11,21,-3

# One compound at a time, from the list above. Order of values: PINK1 expr mod, D2 ag, TRPML1 agonist, Six1-Eya2 blk, D2 PAM, CtBP-E1A blk
# Record of `CN(C)CCNc1oc(-c2ccccc2Cl)nc1S(=O)(=O)c1ccccc1` → -0.4%, -3.5, 0.0, -10, -4, -10
# Record of `Cc1noc(C)c1COc1ccccc1C(=O)NCCOc1ccccc1` → 2.1%, -4.7, 0.7, -2, -6, 14

# Next part:
SMILES,PINK1 expr mod,D2 ag,TRPML1 agonist,Six1-Eya2 blk,D2 PAM,CtBP-E1A blk
CC(C)c1ccc(N(CC(=O)NC2CCCCC2)C(=O)CCC(=O)Nc2ccccn2)cc1,3.4%,4.6,0.1,12,-9,17
CC1CC(C)(C)NC(=S)N1CCC(=O)NCCc1ccc(Cl)cc1 (configuration not stated),-1.0%,-3.4,0.0,-12,-6,-7
COC(=O)c1c(C)oc(C)c1S(=O)(=O)N(C)C1CCCCC1,3.5%,-0.3,1.7,-3,-2,-5
CCCCc1ccc(NC(=O)C2CCCC2)cc1,2.5%,-0.7,0.9,15,1,19
C/C(=N/NS(=O)(=O)c1ccc(C)cc1)c1c(O)c2ccccc2oc1=O,0.0%,2.1,2.3,0,2,-2
CC(C)(C)NC(=O)c1ccc2c(c1)C(=O)N(Cc1ccco1)C2=O,1.9%,-3.9,0.1,-5,-4,0
O=C(O)C1=C(OCc2ccccc2)C(=O)NCC1,2.5%,-2.9,0.1,-5,0,-18
O=c1oc(-c2ccc(Cl)c(Cl)c2)nn1-c1ccc(C(F)(F)F)cn1,4.8%,-0.9,-1.2,16,4,3
CC1=NN(c2ccccc2)C(c2ccco2)C1 (configuration not stated),1.2%,-5.9,0.8,-16,-6,0
C[C@H]1COC(=O)[C@H](Cc2ccc(F)cc2)CC/C=C/C[C@@H](CC(=O)N[C@@H](CO)Cc2ccccc2)C(=O)N1,-0.4%,0.1,-0.2,0,-3,-1

# Part of the list above, reformatted:
Molecule | PINK1 expr mod | D2 ag | TRPML1 agonist | Six1-Eya2 blk | D2 PAM | CtBP-E1A blk
CC1CCN(C(=O)CSCC(=O)Nc2nc(-c3cccs3)cs2)CC1 | 2.8% | 2.2 | 0.5 | -8 | -4 | 2
C=CCN1C(=O)c2ccccc2Sc2ccc(C(=O)N3CCN(C)CC3)cc21 | 2.5% | 4.6 | -1.3 | 0 | -11 | 13
CCn1c(=O)cc(OCC(=O)Nc2cc(C)ccn2)c2ccccc21 | 11%[38.3 µM] | 0.8 | 0.4 | -9 | -7 | -16
CCOc1ccccc1CNCc1ccc(C(=O)O)cc1 | -2.8% | 4.7 | 0.5 | 6 | -1 | 7
Nc1nc(Sc2ccc(C(F)(F)F)cn2)n[nH]1 | 0.5% | 6.5 | 0.0 | -2 | -6 | -23
COc1ccc(CN(CCC(c2ccc(F)cc2)C2CCOC(C)(C)C2)C(=O)c2ccco2)cc1 (configuration not stated) | -1.9% | ? | 3.4 | -8 | 17 | -5
COc1nc(OC)nc(Oc2ccc(Cl)cc2[N+](=O)[O-])n1 | 1.1% | 2.5 | 0.2 | -11 | 21 | -3
CC(C)c1ccc(N(CC(=O)NC2CCCCC2)C(=O)CCC(=O)Nc2ccccn2)cc1 | 3.4% | 4.6 | 0.1 | 12 | -9 | 17
CC1CC(C)(C)NC(=S)N1CCC(=O)NCCc1ccc(Cl)cc1 (configuration not stated) | -1.0% | -3.4 | 0.0 | -12 | -6 | -7
COC(=O)c1c(C)oc(C)c1S(=O)(=O)N(C)C1CCCCC1 | 3.5% | -0.3 | 1.7 | -3 | -2 | -5
CCCCc1ccc(NC(=O)C2CCCC2)cc1 | 2.5% | -0.7 | 0.9 | 15 | 1 | 19
C/C(=N/NS(=O)(=O)c1ccc(C)cc1)c1c(O)c2ccccc2oc1=O | 0.0% | 2.1 | 2.3 | 0 | 2 | -2
CC(C)(C)NC(=O)c1ccc2c(c1)C(=O)N(Cc1ccco1)C2=O | 1.9% | -3.9 | 0.1 | -5 | -4 | 0
O=C(O)C1=C(OCc2ccccc2)C(=O)NCC1 | 2.5% | -2.9 | 0.1 | -5 | 0 | -18
O=c1oc(-c2ccc(Cl)c(Cl)c2)nn1-c1ccc(C(F)(F)F)cn1 | 4.8% | -0.9 | -1.2 | 16 | 4 | 3

# Additional results:
SMILES,PINK1 expr mod,D2 ag,TRPML1 agonist,Six1-Eya2 blk,D2 PAM,CtBP-E1A blk
Cc1ccc(C(=O)CSc2ccccn2)cc1,1.0%,-3.1,1.8,22,-2,6
CC1CC(C)CN(C(=O)CSc2n[nH]c(N)n2)C1 (configuration not stated),4.6%,-0.8,-1.2,1,5,nt
Cc1occc1C(=O)NC1CCCN(Cc2ccc(CC(C)C)cc2)C1 (configuration not stated),?,1.7,-0.4,-8,-22,52
N#Cc1ccc(C23CC4(C2)[C@H](CN(Cc2ccc(-c5ccccc5)cc2)[C@@H]4c2ccccc2)C3c2ccc(Cl)nc2)cc1 (some centres not stated),1.1%,-1.3,0.0,1,0,4
CCCC(C(=O)NCc1ccco1)N(C(=O)CNS(=O)(=O)c1ccc(Cl)cc1)C1CCCC1 (configuration not stated),0.8%,-3.6,-0.9,-11,-6,-5
CSC1=NCCN1C(=O)Cc1ccc(-c2ccccc2)cc1,0.8%,-2.1,0.4,14,6,21

# From PubChem BioAssay
